CapD inh: Bacillus anthracis CapD inhibitors, primary screen, biochemical, fluorescence intensity | purified CapD enzyme, fluorescence intensity read-out; active compounds read low; some hits fall short of the stated cut | z-score (no concentration beside the values) | 140,000 tested, 0.23% active | AID 492967, 2010;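 active = z-score under -4 in either of two replicates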;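 also: stock transfer was 100 nL into about 40 µL; score is relative to mean and spread of the plate; one replicate is shown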
AID504770: growth inhibition of E. coli YBA685, primary screen, V. cholerae RctB inhibitors. AID 504770, 2011. E. coli YBA685 rctB-dependent plasmid, OD600 growth, 3 h; active compounds read low. z-score (test concentration not listed). 130,000 tested, 0.27% active;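 active = z-score under -2 on both plates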;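 also: wells of about 30 µL received 100 nL stock; score is relative to mean and SD of the test wells; the first replicate is given; strong numbers were not always called active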
The depositor's hits bear a star. Rows are unselected; about 0.37% have a hit in one of these screens.

How did CCCOc1ccc(C2NC(=O)NC(C)=C2C(=O)OCCc2ccccc2)cc1OC (centres undefined) do in these assays?
CapD inh: -0.01

How did COc1ccc(-c2c(C#N)c(N)nc(SCC(=O)c3ccc(O)c(O)c3)c2C#N)cc1 do in these assays?
CapD inh: 5.25

How did COc1ccc(NC(=O)/C(C#N)=C/C=C/c2ccco2)cc1 do in these assays?
AID504770: 0.55

What do the screens show for `C/C(=N/O)c1ccc(OCCO)cc1`?
CapD inh: -0.48; AID504770: -0.2

What do the screens show for `CCn1cc(S(=O)(=O)CC(=O)Nc2ccccc2)c2ccccc21`?
CapD inh: -0.545; AID504770: 0.15

Results for COc1ccc(C(=O)OCC(=O)N(C)C)cc1 ?
AID504770: -0.4

Results for O=C1NC(=O)c2cc(NC(=O)C3COc4ccccc4O3)ccc21 (centres undefined) ?
AID504770: 1.4

What do the screens show for `CC1CCN(CC(C)OC(=O)c2cccs2)CC1` (centres undefined)?
CapD inh: 0.125; AID504770: -0.35

Results for CCCN1CCC(N(C(=O)c2ccc(NC(=O)c3cc(OC)c(OC)c(OC)c3)cc2)C2CC2)CC1 ?
CapD inh: -0.305

How did Cc1cc(NCc2ccco2)c2ccccc2n1 do in these assays?
CapD inh: -1.47; AID504770: -0.6

How did O=C(CCCn1c(=S)[nH]c2ccc(Br)cc2c1=O)NCCCN1CCN(c2cccc(Cl)c2)CC1 do in these assays?
CapD inh: -1.11

What do the screens show for `Cc1ccc(-n2cc(C(=O)c3cc(C)ccc3O)cc(C#N)c2=O)cc1`?
CapD inh: 0.275; AID504770: -0.6

How did COCCCN=C1NC(=O)C(CC(=O)Nc2cc(Cl)ccc2Cl)S1 (centres undefined) do in these assays?
CapD inh: 0.685

What do the screens show for `C/C(=N\OC(=O)Nc1ccccc1)c1sc(-c2ccc(Cl)cc2)nc1C`?
CapD inh: 0.815

Results for O=C(O)c1c2ccccc2[nH]c2c1oc1cc(=O)ccc12 ?
AID504770: 1.9

Results for CCOC(=O)c1sc(SC)c2c1CC/C(=C\N(C)C)C2=O ?
CapD inh: -2.25; AID504770: 0.2

How did CN(C)c1ccc(/C=N/N(C(=O)C(O)(c2ccc(Cl)cc2)c2ccc(Cl)cc2)c2ccccc2)cc1 do in these assays?
CapD inh: 2.56

What do the screens show for `Cc1c(C(=O)O)cc(C(C)(C)C)n1-c1ccccc1`?
CapD inh: -0.225; AID504770: 0.3

What do the screens show for `CC1=C(C(=O)c2ccccc2)CNC(=S)N1`?
CapD inh: -3.08; AID504770: 0.05

Results for CCCCN(C)Cc1c(O)ccc2c(=O)c(Oc3cc(C)cc(C)c3)coc12 ?
CapD inh: 20.7; AID504770: -0.05

What do the screens show for `CCOc1ncnc2c1nnn2Cc1ccccc1Cl`?
CapD inh: -0.685; AID504770: 2.15

What do the screens show for `CCOC(=O)C1=C(C)N=c2s/c(=C\c3ccc(O)c(OC)c3)c(=O)n2C1c1ccc(OCC)c(OCC)c1` (centres undefined)?
CapD inh: -1.76

How did O=C(c1cccs1)c1cnc2ccccn2c1=O do in these assays?
CapD inh: 0.055; AID504770: 0.45

Results for O=C(CSc1ccccc1C(=O)O)c1ccc(Cl)cc1 ?
CapD inh: 0.22; AID504770: 0.05

How did COC(=O)c1cc(C#N)c(C)nc1Sc1nccn1-c1cc(Cl)ccc1Cl do in these assays?
CapD inh: -1.17; AID504770: -0.4

What do the screens show for `Cc1ccc2nc(C3=C(O)CN(CC(C)C)C3=N)[nH]c2c1`?
CapD inh: 0.18; AID504770: -0.85

What do the screens show for `CCOC(=O)c1ccc(Nc2nc3nonc3nc2N(CC)CC)cc1`?
CapD inh: -0.48

What do the screens show for `O=C1CSC(c2ccccc2C(F)(F)F)N1c1ccc(Br)cc1` (centres undefined)?
CapD inh: -0.075

How did Cc1cc(C)c(C)c(C2=NON3N(C(=O)c4ccc(Cl)cc4)c4ccccc4N23)c1C do in these assays?
CapD inh: -0.74

What do the screens show for `COc1cc([N+](=O)[O-])cc2sc(NC(=O)c3ccccc3NS(=O)(=O)c3ccc(C)cc3)nc12`?
CapD inh: 0.17

How did CC(C)(C)NS(=O)(=O)c1ccc(F)cc1 do in these assays?
CapD inh: 0.615; AID504770: 0.1

Results for COc1cc(NC(=O)CCC2CCCC2)c(C(=O)O)cc1OC ?
AID504770: -0.05

Results for O=c1cc(CCl)c2ccc(O)cc2o1 ?
CapD inh: 1.43; AID504770: 0.95

Results for COc1ccc(CN2CCN(c3ccccn3)CC2)cc1OCc1ccccc1 ?
CapD inh: 0.375; AID504770: -0.8

What do the screens show for `CCCN(CCC)C(=O)c1ccc2c(c1)N(Cc1ccccc1F)C(=O)c1ccccc1S2(=O)=O`?
CapD inh: -0.485; AID504770: -0.35

How did CCN(CC)c1ccc(C2Nc3cccc4cccc(c34)N2)cc1 do in these assays?
CapD inh: 16.1

Structures listed so far that have a Cl atom:
How did O=C(CCCn1c(=S)[nH]c2ccc(Br)cc2c1=O)NCCCN1CCN(c2cccc(Cl)c2)CC1 do in these assays?
CapD inh: -1.11

How did COCCCN=C1NC(=O)C(CC(=O)Nc2cc(Cl)ccc2Cl)S1 (centres undefined) do in these assays?
CapD inh: 0.685

What do the screens show for `C/C(=N\OC(=O)Nc1ccccc1)c1sc(-c2ccc(Cl)cc2)nc1C`?
CapD inh: 0.815

How did CN(C)c1ccc(/C=N/N(C(=O)C(O)(c2ccc(Cl)cc2)c2ccc(Cl)cc2)c2ccccc2)cc1 do in these assays?
CapD inh: 2.56

What do the screens show for `CCOc1ncnc2c1nnn2Cc1ccccc1Cl`?
CapD inh: -0.685; AID504770: 2.15

Results for O=C(CSc1ccccc1C(=O)O)c1ccc(Cl)cc1 ?
CapD inh: 0.22; AID504770: 0.05

How did COC(=O)c1cc(C#N)c(C)nc1Sc1nccn1-c1cc(Cl)ccc1Cl do in these assays?
CapD inh: -1.17; AID504770: -0.4

How did Cc1cc(C)c(C)c(C2=NON3N(C(=O)c4ccc(Cl)cc4)c4ccccc4N23)c1C do in these assays?
CapD inh: -0.74

Results for O=c1cc(CCl)c2ccc(O)cc2o1 ?
CapD inh: 1.43; AID504770: 0.95

Next section.
How did CCOC(=O)C1=C(C)OC(N)=C(C#N)C1c1cc(F)ccc1F (centres undefined) do in these assays?
CapD inh: 0.88

What do the screens show for `O=C(NCc1ccccc1)c1ccc2nc3c(cc2c1)CCS3`?
CapD inh: 29.5; AID504770: -0.15

Results for CCC(CC)(CN(C)C)OC(=O)c1ccccc1 ?
CapD inh: 0.64; AID504770: -0.4

How did COc1ccc(NC(=O)COC(=O)c2cc(-c3ccc(C)o3)nc3ccccc23)cc1 do in these assays?
AID504770: 0.4

How did COc1ccc(NC(=O)c2c(NCc3ccc(OC)c(OC)c3)sc3c2CCCCC3)cc1 do in these assays?
CapD inh: 0.525

How did COc1ccc(/C=C2\Oc3cc(OCc4cccc(C)c4)ccc3C2=O)cc1 do in these assays?
CapD inh: -0.035; AID504770: 0.25

How did O=C(NC1=NCCS1)c1ccc(S(=O)(=O)N2CCc3ccccc3C2)cc1 do in these assays?
AID504770: 0

How did COc1ccc(CNC(=O)Cc2nc(-c3ccc(OC)cc3)no2)cc1 do in these assays?
CapD inh: 0.105; AID504770: -0.45

How did COc1ccc2cc(Br)ccc2c1CC(=O)NC(C)C do in these assays?
CapD inh: 0.4; AID504770: 0.15

What do the screens show for `CCOCCn1cnc2sc(C(=O)N3CCN(C)CC3)c(C)c2c1=O`?
CapD inh: 6.17

Results for COc1cc2c(cc1OC)C(C)N(C(=O)c1nn(-c3ccccc3)nc1C)CC2 (centres undefined) ?
CapD inh: 0.02; AID504770: -0.8

How did Cn1c(C(C#N)c2nc(C#N)c(C#N)nc2Cl)nc2ccccc21 (centres undefined) do in these assays?
AID504770: -0.1

Results for CCN(CC)C(=O)c1oc2ccc(S(=O)(=O)N3CCCC3)cc2c1C ?
CapD inh: -0.175; AID504770: -0.25

Results for CN(Cc1ccccc1)C(=O)c1cc2c(s1)-c1ccccc1S(=O)(=O)C2 ?
CapD inh: 0; AID504770: 0

What do the screens show for `CC1CCCC(C)N1C(=O)COc1ccc(-c2nnco2)cc1` (centres undefined)?
AID504770: 0.3

Results for c1csc(-c2noc(C3CCNCC3)n2)c1 ?
CapD inh: -0.52

How did CCN(CC)C(=O)Cc1cn(C)c2ccccc12 do in these assays?
CapD inh: 0.055; AID504770: -1

Results for CCOc1ccc(C(=O)c2cccs2)cc1 ?
CapD inh: -1.1; AID504770: -0.85

Results for CCOC(=O)N1CCN(C(=O)CSc2nnc(Cc3cccn3C)n2-c2ccc(C)cc2)CC1 ?
CapD inh: -0.45; AID504770: 0.55

How did Cc1ccccc1N1C(=O)NC(=O)/C(=C\c2cn(CC(=O)Nc3ccccc3)c3ccccc23)C1=O do in these assays?
CapD inh: -0.08

What do the screens show for `CCOc1ccc(CC(=O)Nc2ccc(C/C(N)=N/O)cc2)cc1OCC`?
CapD inh: -0.615; AID504770: -0.4

How did O=C(O)c1cc([N+](=O)[O-])ccc1NCCc1ccccc1 do in these assays?
CapD inh: -3.42

Results for Oc1c(Cl)cc(Cl)cc1CN1CCN(c2cccc(Cl)c2)CC1 ?
CapD inh: -0.01; AID504770: -0.3

How did COc1ccc(CNc2nc(SCC(=O)NCCc3ccc(S(N)(=O)=O)cc3)nc3ccccc23)cc1 do in these assays?
CapD inh: -0.25

Results for CCN(Cc1nc(-c2cccc(Br)c2)no1)C(C)C(=O)Nc1ccc(C)cc1 (centres undefined) ?
AID504770: -0.2

How did COc1cc(C2Nc3cccc4cccc(c34)N2)cc(OC)c1O do in these assays?
CapD inh: 19.2

What do the screens show for `CCOC(=O)C1=C(N)N(c2ccc(S(N)(=O)=O)cc2)C2=C(C(=O)CC(C)(C)C2)C1c1ccc(SC)cc1` (centres undefined)?
CapD inh: 0.28

What do the screens show for `O=C1Nc2ccccc2C1(O)Cc1ccncc1` (centres undefined)?
CapD inh: 0.505

Results for CS(=O)(=O)c1ccc2nc(NC(=O)c3ccccc3)sc2c1 ?
AID504770: 0.65

How did CCOC(=O)c1c(C)oc2ccc(N(C(=O)c3cccc([N+](=O)[O-])c3)S(=O)(=O)c3ccccc3)cc12 do in these assays?
CapD inh: -0.04

Results for CCCCCCCCCOc1ccc(-c2ncc(CCCCC)cn2)cc1 ?
CapD inh: -0.57

What do the screens show for `O=C(NCc1ccco1)c1cc(Cl)cc(Cl)c1`?
CapD inh: -0.095; AID504770: -0.55

Results for CCOC(=O)C1=C(C)N=c2s/c(=C3\C(=O)N(C)c4ccccc43)c(=O)n2C1c1ccc(OC)cc1 (centres undefined) ?
CapD inh: 0.535

How did COc1ccc(C2C(C#N)=C(N)Oc3c2ccc2cccnc32)cc1 (centres undefined) do in these assays?
AID504770: 0.9

What do the screens show for `O=C(c1cccc(Cl)c1)N1N=C(c2ccc(Cl)cc2)CC1(O)C(F)(F)F` (centres undefined)?
CapD inh: 0.23

How did COc1ccc(CC(=O)NNC(=O)OCC2CCC3CC2C3(C)C)c(OC)c1 (centres undefined) do in these assays?
CapD inh: -0.505

How did Cn1ccnc1C(=O)c1ccccc1Cl do in these assays?
CapD inh: 0.515; AID504770: 0.5

Results for Cc1cc(C)c(NC(=S)NN=C2CCCCCC2)c(C)c1 ?
CapD inh: -0.405

Results for CCOC(=O)c1c(C)[nH]c(C)c1C(=O)Cn1nnc2ccccc2c1=O ?
AID504770: -0.1

Results for COc1ccc(NC(=O)c2c(NCc3ccc(OC)c(OC)c3OC)sc3c2CCCCC3)cc1 ?
CapD inh: 1.08

How did C1CCCN(C2CCNCC2)CC1 do in these assays?
AID504770: -0.3

Results for C=Cn1c(C(=O)O)ccc1-c1ccc(C)cc1 ?
CapD inh: 1.03; AID504770: 0.35

How did CCC(Sc1nnc(C)c(=O)[nH]1)C(=O)Nc1ccccc1C#N (centres undefined) do in these assays?
CapD inh: 0.775; AID504770: 0.25

How did CCOC(=O)C1C(=O)NC(SCC(=O)Nc2ccc(Br)cc2)=C(C#N)C1c1ccccc1[N+](=O)[O-] (centres undefined) do in these assays?
CapD inh: -0.92

How did Cc1[nH]c2ccccc2c1C(=O)C(C)Sc1nnc(-c2ccccc2)o1 (centres undefined) do in these assays?
AID504770: -0.4

What do the screens show for `Cc1ccc2nc(-c3ccccc3)cn2c1`?
CapD inh: -0.255; AID504770: -0.25

Results for COc1ccc(C2=CC(=O)N(c3ccccc3)C(c3ccccc3)O2)cc1 (centres undefined) ?
CapD inh: 0.3; AID504770: -1.3

How did COc1ccc2occ(C(O)c3ccccc3)c2c1 (centres undefined) do in these assays?
CapD inh: 0.405; AID504770: -0.35

How did CCCN(C(=O)C1CCCN1S(=O)(=O)c1cccc2nsnc12)c1ccc(C(C)C)cc1 (centres undefined) do in these assays?
CapD inh: -1.09; AID504770: -0.65

Results for O=C(O)c1ccc(C2SCC(=O)N2CCc2ccccc2)cc1 (centres undefined) ?
CapD inh: -0.415; AID504770: 1.7

Results for CC1CCCN(C(=O)COC(=O)c2ccc(Br)cc2)C1 (centres undefined) ?
CapD inh: -0.345; AID504770: 0

How did CSc1ccc(C2N(Cc3ccccc3)CCN2Cc2ccccc2)cc1 do in these assays?
CapD inh: -0.62

Results for CCCCN(CC)C(=O)c1n[nH]c(=O)c2ccccc12 ?
CapD inh: 0.015; AID504770: 0

What do the screens show for `Cc1ccc(NC(=O)c2cccnc2)cc1C`?
CapD inh: 0.32; AID504770: -0.5

Results for CC(=O)Nc1ccc(C(=O)OCC(=O)Nc2cc(Cl)cc(Cl)c2)cc1 ?
CapD inh: -0.085; AID504770: 1.05
